miR-21 reporter = raises the signal of a miR-21 reporter | HeLa miR-21 FLuc reporter, luciferase, 48 h | Potency, µM (doses to about 38.3 µM), without a hit: at the top dose reporter change, positive = more light | 340,000 tested, under 10 active | AID 2288; active = well fitted rising curve with a large enough effect; inconclusive = small, poorly fitted or top-dose-only effect; inactive = no such curve, though single readings can be large or run the other way;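 note: % of control where 0% means no effect; miR-21 action dims this reporter so a rising signal means less miR-21 action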
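HeLa cells endogenously expressing miR-21, stably carrying CMV-driven firefly luciferase with a downstream miR-21 binding site, 2000 cells/well. Titrations up to approximately 40 uM, 48 hours; luciferase luminescence read.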
Rango-impB inh = Rango-importin beta binding inhibition; Q14974; AID 540263; 340,000 tested, 0.031% active; Potency, µM (series often up to 92.2 µM), for inactives: at the top dose inhibition of complex formation; Rango CFP/YFP FRET sensor + importin beta, 45 min; active = rising FRET ratio curve, often small or poorly fitted; inconclusive = mostly compound fluorescence or quenching in the first reads; inactive = flat curves in all reads;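 note: potency is the fitted concentration of half-maximal effect; 0% = DMSO wells and 100% = buffer wells lacking importin beta; nearly all actives have a fitted effect of over 15% in size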
Target sequence (Q14974 whole entry, looked up): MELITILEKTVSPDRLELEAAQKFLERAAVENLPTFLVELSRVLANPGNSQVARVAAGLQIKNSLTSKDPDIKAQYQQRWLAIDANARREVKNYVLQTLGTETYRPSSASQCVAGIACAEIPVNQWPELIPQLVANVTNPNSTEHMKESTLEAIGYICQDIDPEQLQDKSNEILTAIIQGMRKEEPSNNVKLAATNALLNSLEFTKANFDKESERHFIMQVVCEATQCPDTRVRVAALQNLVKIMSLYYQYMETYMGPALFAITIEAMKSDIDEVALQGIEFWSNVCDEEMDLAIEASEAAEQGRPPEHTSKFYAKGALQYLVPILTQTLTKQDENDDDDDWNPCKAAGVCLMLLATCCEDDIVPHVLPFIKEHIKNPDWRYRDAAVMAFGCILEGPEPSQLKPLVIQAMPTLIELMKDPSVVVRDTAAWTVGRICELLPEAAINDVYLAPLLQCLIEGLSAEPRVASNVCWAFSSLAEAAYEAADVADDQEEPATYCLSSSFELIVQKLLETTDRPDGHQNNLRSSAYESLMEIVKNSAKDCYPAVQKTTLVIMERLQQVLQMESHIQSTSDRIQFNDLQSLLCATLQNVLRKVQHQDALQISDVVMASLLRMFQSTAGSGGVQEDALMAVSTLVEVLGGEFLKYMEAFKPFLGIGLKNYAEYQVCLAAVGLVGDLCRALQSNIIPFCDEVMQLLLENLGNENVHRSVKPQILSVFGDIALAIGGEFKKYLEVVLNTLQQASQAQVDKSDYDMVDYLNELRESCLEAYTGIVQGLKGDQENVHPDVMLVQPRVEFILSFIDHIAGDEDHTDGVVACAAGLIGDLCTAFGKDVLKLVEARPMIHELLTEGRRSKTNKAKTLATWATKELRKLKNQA
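Inhibition scored from the CFP 486 nm/YFP 530 nm FRET ratio 45 min after adding 0.125 microM importin beta to 50 nM Rango biosensor preincubated 5 min with compound (room temperature, PBS with DTT, Tween-20, BSA). No-importin wells as positive control.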
GLA inh pH 4.5 = alpha-galactosidase A (human) inhibition, pH 4.5. purified enzyme, 4-MU-alpha-Gal fluorescence, pH 4.5. activity change, negative = inhibition, % at 105 µM. P06280. 230,000 tested, under 10 active; inconclusive = small, poorly fitted or top-dose-only inhibition, or a rising curve; inactive = flat fitted curve, though single readings scatter; no compound was filed as active;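 note: 0% = full activity with enzyme and -100% = basal without enzyme; dose as in the result columns while the protocol names 77 µM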
Rango dissoc inh = inhibition of RanGTP-driven Rango-importin beta dissociation | O95149+P62826 | Biochemical FRET Rango-importin beta, RanGTP-induced dissociation | Potency, µM (titrated, usually from 46.1 µM), without a hit: top-dose activity change, negative = inhibition | 340,000 tested, 0.071% active | AID 540253; active means falling FRET ratio curve, often poorly fitted, with flat reads before Ran was added; inconclusive means other falling curves, or compound fluorescence or quenching; inactive means flat or rising ratio curve;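 note: potency is the fitted concentration of half-maximal effect; % of control where 0% means no effect; nearly all actives have a fitted effect of over 45% in size; -100% = wells without RanGTP and RCC1; the record marks most hits as doubtful in a second field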
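Rango (0.1 uM)–importin beta (0.25 uM) complex; RanGTP-RCC1 trigger; 45 min RT; CFP/YFP FRET read.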
Starred values were filed as active, the others as inactive; ? = inconclusive; nt = not tested or not shown; & = joins results of further samples.

Rango-impB inh,Rango dissoc inh,miR-21 reporter,GLA inh pH 4.5,SMILES
0.8%,8.5%,nt,nt,C1=C[C@@H]2CCN(Cc3ccccc3)Cc3cccc(c32)C1
0.6%,-17.5%,0.4%,5.1,O=C(COC(=O)COc1ccccc1)Nc1ccc(S(=O)(=O)N2CCOCC2)cc1
-1.5%,-20.4%,-3.1%,nt,COc1ccccc1CCNC(=O)c1cc(COc2cccc(C(F)(F)F)c2)on1
0.4%,-5.9%,-7.0%,-6.6,CCN(CC)CC(O)Cn1c2ccccc2c2ccccc21 (stereo unspecified)
0.7%,-5.0%,-7.6%,-0.1,Clc1ccccc1-c1nnc2sc(-c3ccco3)nn12
-1.1%,4.1%,-0.8%,-1.4,CC(C)(Oc1ccc(Cl)cc1)C(=O)NCc1ccco1
-2.6%,0.5%,-29.6%,nt,Cc1ccc(/C(N)=N/OC(=O)CCCc2ccccc2)cc1
-2.4%,3.3%,5.8%,-7.2,CC1CCCC(NC(=O)CCNS(=O)(=O)c2ccc(Br)cc2)C1C (stereo unspecified)
4.6%,39.7%,-0.8%,2.4,Cn1cc(P(=S)(N2CCOCC2)N2CCOCC2)cc1P(=O)(N1CCOCC1)N1CCOCC1
0.4%,7.1%,3.0%,-4.4,COCc1cc(C)nc2sc3c(=O)n(Cc4ccco4)nnc3c12
0.8%,-1.3%,?,-9.4,COc1ccc(NC(=O)/C(C#N)=C\C=C\c2ccco2)cc1
0.9%,-8.8%,-5.4%,-7.5,O=c1o[nH]c(-c2ccccc2)c1C1=NCCCCC1
-4.0%,25.1%,-5.4%,-2.8,CCCCNCCOCCOc1ccc(C)cc1Br
3.8%,-12.6%,2.2%,-0.1,CCOC(=O)c1[nH]c(C)c(/C(O)=C2\C(=O)C(=O)N(CCN(C)C)C2c2cccc(OC)c2OC)c1C (stereo unspecified)
1.5%,3.8%,-15.7%,nt,COc1ccccc1OCc1cc(C(=O)NCc2ccc(N3CCCC3=O)cc2)no1
?,?,15.2%,1.8,Cc1nc(-n2[nH]c3c(c2=O)CCCC3)[nH]c(=O)c1Cc1ccccc1
-2.2%,11.0%,-11.2%,-11.7,O=C(NC(=S)NCC1COc2ccccc2O1)c1ccccc1 (stereo unspecified)
4.6%,9.8%,-1.9%,nt,O=C(NCCCN1CCOCC1)c1ccc(NS(=O)(=O)c2cccc([N+](=O)[O-])c2)cc1
nt,nt,-2.8%,4.8,CC1CC(C)CN(C2CCN(Cc3cccnc3)CC2)C1 (stereo unspecified)
-3.8%,-3.3%,-5.3%,-5.9,Cc1nc(CSc2nnc3scc(-c4ccc(Cl)cc4)n23)cs1
-3.6%,-20.9%,-3.4%,11.3,O=C(CCN1c2ccccc2Sc2ccccc21)OCc1nnc(-c2ccccc2)o1
3.0%,6.4%,18.6%,nt,CC(C)c1ccc(NC2CCCN(C(=O)c3n[nH]c4c3CCC4)C2)cc1 (stereo unspecified)
2.5%,17.6%,-25.0%,-5.8,c1cncc(-c2nnc(C3CCCCC3)o2)c1
5.1%,7.1%,0.5%,nt,Cc1ccc(Nc2cc(C)nc3ncnn23)cc1
-0.9%,-0.5%,27.2%,5.5,O=C1/C(=C/c2ccncc2)CCc2ccccc21
4.3%,-1.3%,0.3%,nt,CCOC(=O)C1CCCN(CCc2ccccc2)C1 (stereo unspecified)
-0.3%,0.9%,8.7%,nt,CN(CC(=O)N1CCN(Cc2ccccc2)CC1)S(=O)(=O)c1ccc(Br)cc1
-2.6%,0.5%,-5.5%,-12.1,Cc1cc(C)cc(CC2CC(=O)N(c3ccc4c(c3)OCCO4)C2=O)c1 (stereo unspecified)
-4.9%,-2.3%,-4.0%,3.2,O=C(Cn1c(=O)n(CCCCC(=O)NC2CCCC2)c(=O)c2ccccc21)NCCC1=CCCCC1
-2.5%,-3.4%,2.0%,6.4,CCC(CC)c1nnc(NC(=O)c2c(C)nn(Cc3ccccc3Cl)c2C)s1
2.0%,-2.3%,0.4%,nt,CCOCCc1nnc(NC(=O)CS(=O)(=O)c2ccc(C)cc2)s1
-1.7%,1.2%,3.6%,11.8,Cc1cc(C)c2c(=O)n(CC(=O)NCCCN3CCOCC3)sc2n1
-0.1%,0.5%,-31.4%,-0.6,O=C(Nc1cccc(Cl)c1)OCc1cnc(Cl)s1
?,-12.3%,-3.8%,-11.9,Cc1ccc(N2C(=O)c3cccc4c(Oc5ccccc5[N+](=O)[O-])ccc(c34)C2=O)c(C)c1
1.7%,15.8%,-59.5%,-5.6,N/C(=N\N=C\c1ccc([N+](=O)[O-])cc1)c1nonc1N
-2.1%,-2.1%,-1.3%,-9.5,Cc1cc(C)nc(NC(=O)c2cc([N+](=O)[O-])cc([N+](=O)[O-])c2)n1
?,15.1%,-54.1%,5.1,O=[N+]([O-])c1ccccc1N/N=C/c1ccc2c(c1)OCO2
0.8%,-20.9%,-3.3%,-2.7,CC1CCCCN1c1cc(C#N)c(C#N)cc1[N+](=O)[O-] (stereo unspecified)
-0.1%,13.5%,2.5%,-2.1,O=C1CC(c2ccc(Cl)cc2)SC(N(c2ccccc2)c2ccccc2)=N1 (stereo unspecified)
1.8%,7.7%,-3.6%,3.5,Cc1ccccc1S(=O)(=O)Cc1ccc(C(=O)N2CCN(C3CCCCC3)CC2)o1
-2.2%,2.9%,-1.4%,3.5,COC(=O)CSc1nc2sc3c(c2c(=O)[nH]1)CCC3
1.7%,-6.9%,-31.4%,nt,Cc1cc(=O)oc2cc(OCC(=O)c3ccccc3)ccc12
-2.4%,-13.8%,-11.5%,-2.4,COc1ccc(OC)c(C(=O)COC(=O)C2CC3CCCC(C2)C3=O)c1 (stereo unspecified)
2.3%,-0.1%,-30.0%,11.0,Cc1cc(NC(=O)c2ccc3c(c2)OCO3)ccc1NC(=O)c1ccco1
3.5%,?,-2.1%,nt,CCCC(C)NC(=O)C1CCN(C(=O)C2CC(=O)N(c3ccc(C)cc3)C2)CC1 (stereo unspecified)
-4.2%,-5.2%,-30.2%,8.3,CC1CCN(c2ccc(NC(=S)NC(=O)c3ccco3)cc2)CC1
3.6%,-12.6%,2.6%,nt,CS(=O)(=O)N(CC(=O)N1CCCCCC1)c1ccc(Cl)cc1
2.3%,-8.3%,nt,nt,Cc1cccc(C(=O)Nc2cc(Cl)ccc2-n2cncn2)c1[N+](=O)[O-]
0.4%,8.7%,-22.3%,11.5,Cn1c(=O)cc(OCCCC(=O)NC2CCCC2)c2ccccc21
2.1%,-1.1%,-17.8%,6.0,COc1ccc(CCNC(=O)c2ccc(Cl)cc2Cl)cc1

Next entries
Rango-impB inh,Rango dissoc inh,miR-21 reporter,GLA inh pH 4.5,SMILES
-4.1%,11.6%,-0.3%,nt,O=S(=O)(Nc1ccccc1Cl)c1ccc2[nH]c(=S)oc2c1
6.1%,-0.4%,-15.9%,-11.3,CC(C)(C)c1ccc(C(=O)NNc2ncccc2-n2cccc2)cc1
?,?,11.4%,-7.4,CN(C)S(=O)(=O)c1cccc(NC(=S)N/N=C/c2cc(Br)ccc2O)c1
?,-14.8%,-7.0%&-4.8%,8.3,COC(=O)c1ccccc1NC(=O)Cn1c(CCC(=O)O)ccc1-c1cccs1
2.6%,-4.5%,-0.9%,nt,COc1ccc(-n2nc3c(c2NC(=O)C2CC2)CS(=O)(=O)C3)cc1
?,-16.1%,-47.9%,-1.5,Nc1ccc(-c2nnc(-c3ccc(-c4ccccc4)cc3)o2)cc1
?,0.9%,1.2%,7.4,Cc1cc2ncc(C(=O)N=CN(C)C)cn2n1
0.1%,-0.1%,-7.8%,nt,O=C(NC1CCCc2ccccc21)c1cc(Cl)ccn1 (stereo unspecified)
-2.3%,7.0%,4.1%,nt,COc1ccc(NC(=O)COC(=O)CCc2ccccc2)c(OC)c1
1.6%,-10.4%,-20.3%,3.6,Cc1ccc(CSc2ccc(-c3ccc4c(c3)OCO4)nn2)cc1
4.1%,-10.2%,-6.1%,2.9,CCOc1ccc(-n2c(C)c(C(C)=O)c3cc(OCC(N)=O)ccc32)cc1
0.2%,-8.5%,-15.1%,-8.3,COc1cc(/C=N/NC(=O)c2cc(C)oc2C)ccc1O
-3.6%,-8.8%,-12.4%,-2.6,O=C(CSCc1ccc(Cl)cc1)NCC1CCCO1 (stereo unspecified)
-5.4%,12.8%,5.9%,5.6,CS/C(=C\[N+](=O)[O-])Nc1ccc(F)cc1
-0.8%,1.2%,1.3%,15.9,COc1ccc(NC(=O)C2CCN(C(=O)c3ccc(OC)cc3)CC2)cc1
1.9%,5.2%,nt,nt,COc1cc(C(C2C(=O)CC(C)(C)CC2=O)C2C(=O)CC(C)(C)CC2=O)ccc1OC(C)=O
2.7%,-14.5%,nt,nt,COc1ccccc1CNC(=O)c1cc(-c2ccccc2)nn1CC1CC(c2cccnc2)=NO1 (stereo unspecified)
-4.2%,5.9%,-6.4%,nt,COc1ccccc1OCC(=O)Nc1nc2c(s1)CCCC2
-2.4%,0.8%,nt,nt,C/C(=N/Nc1ccc(C(=O)c2c(C)cc3ccccn23)cc1[N+](=O)[O-])c1ccc(O)cc1
0.7%,-7.7%,nt,nt,CCOC(=O)Cc1csc(NC(=O)c2cccc(Cl)c2)n1
-0.6%,-13.3%,-4.8%,nt,CCn1c(SCC(=O)Nc2ccc(Br)cc2)nc2sc3c(c2c1=O)CCN(C)C3
1.8%,2.8%,1.5%,14.9,COc1cccc(C(=O)Nc2ccc(-c3nc4ccccc4o3)c(O)c2)c1
3.3%,3.8%,-7.7%,-4.6,CCCCOc1ccc(C(=O)N/N=C/c2ccc(OCCN3CCCCC3)c(OC)c2)cc1
-0.3%,1.8%,8.5%,3.0,O=C1C(NS(=O)(=O)c2cccs2)=C(N2CCN(c3cccc(C(F)(F)F)c3)CC2)C(=O)c2ccccc21
-0.1%,0.0%,-1.1%,nt,CCS(=O)(=O)c1ccc2c(c1)N(S(=O)(=O)c1cccs1)CC(C(=O)O)O2 (stereo unspecified)

Reformatted as labelled records: entries from further up
> O=C(NC1CCCc2ccccc21)c1cc(Cl)ccn1 (stereo unspecified)
  Rango-impB inh: 0.1% | Rango dissoc inh: -0.1% | miR-21 reporter: -7.8% | GLA inh pH 4.5: nt
> CCOC(=O)Cc1csc(NC(=O)c2cccc(Cl)c2)n1
  Rango-impB inh: 0.7% | Rango dissoc inh: -7.7% | miR-21 reporter: nt | GLA inh pH 4.5: nt

Following part:
Rango-impB inh,Rango dissoc inh,miR-21 reporter,GLA inh pH 4.5,SMILES
0.1%,-5.7%,-2.0%,0.4,CCCCNC(=O)OCCSCCS(=O)(=O)c1ccc(Cl)cc1
-2.1%,2.0%,0.2%,nt,Cc1cccc(OCCn2ccnc2)c1
-0.4%,8.4%,-4.2%,-3.2,O=C(NNc1c2ccccc2nc2ccccc12)C12CC3CC(CC(C3)C1)C2
4.6%,22.8%,0.9%,2.7,COC(=O)Nc1ccc(S(=O)(=O)N2CCC(C(=O)N3CCCC(C)C3)CC2)cc1 (stereo unspecified)
-3.0%,21.3%,nt,nt,CN(C(=O)c1cccc(NC(=O)Cc2ccc(NC(=O)C3CCCN(C(=O)C4CCC4)C3)cc2)c1)C1CCC1 (stereo unspecified)
7.7%,-5.8%,-2.4%,-0.5,O=C(c1cc2ccccc2oc1=O)N(Cc1ccco1)CC1CCCO1 (stereo unspecified)
-0.4%,7.4%,-2.6%,nt,CC(=O)Nc1ccc(NC(=O)c2ccc(CN3CCc4ccccc4C3)cc2)cc1
2.2%,1.7%,0.7%,nt,C=CCn1c(SCC(=O)Nc2ccc(F)cc2F)nc2c([nH]c3ccccc32)c1=O
-0.5%,14.2%,15.9%,4.9,COC(=O)C(NC(=O)c1ccccc1Cl)(Nc1ncc(S(=O)(=O)c2ccc([N+](=O)[O-])cc2)s1)C(F)(F)F (stereo unspecified)
-0.5%,1.0%,-1.8%,nt,COc1ccc(CNC(=O)CC(NC(N)=O)c2ccccc2Cl)cc1OC (stereo unspecified)
-2.2%,-7.4%,1.7%,-6.5,CCNc1nc(Oc2ccc(Cl)cc2Cl)cc(C(F)(F)F)n1
-1.3%,9.2%,-8.5%,4.3,COc1ccc(-n2cnc3ccccc32)cc1
0.0%,-6.7%,2.7%,nt,O=C(NCc1ccccc1Br)c1ccncc1
?,0.2%,-1.3%,4.5,COc1cc2nc(CCc3ccccc3)oc(=O)c2cc1OC
1.0%,-6.7%,-35.0%,5.5,Cc1ccccc1C1=NC(c2ccc(F)cc2F)ON1 (stereo unspecified)

An excerpt (hit frequency here may not be typical).
